Assay outcomes from PubChem.
Vaccinia Venus – vaccinia inhibition (Venus reporter) | Vaccinia virus Venus reporter expression, fluorescence | Potency, µM (top dose mostly 36.5 µM), without a hit: at the top dose activity change, negative = inhibition, actives largely listed as inhibitors | actives 0.46% (n = 330,000) | AID 720580; active means well fitted inhibition curve with a large enough effect; inconclusive means small, poorly fitted or top-dose-only effect; inactive means no such curve, though single readings can be large or run the other way; tested in A549 cells; note: nearly all actives have a fitted effect of over 30% in size; inactives centre near -10
VACV mCherry inh – vaccinia inhibition (mCherry reporter). Vaccinia virus mCherry reporter infection, fluorescence; about a quarter of the inactives have no number. Potency, µM (doses to about 36.5 µM), for inactives: at the top dose activity change, negative = inhibition, most hits filed as inhibitors. actives 0.63% (n = 310,000). AID 720579; active = well fitted inhibition curve with a large enough effect; inconclusive = small, poorly fitted or top-dose-only effect; inactive = no such curve, though single readings can be large or run the other way; tested in A549 cells; note: nearly all actives have a fitted effect of over 35% in size; inactives centre near -10
* = called active by the depositor; i = inactive; u = inconclusive; x = not tested or not shown. % is set by controls: 0 for no effect and ±100 for the full control effect; potency is the fitted concentration of half-maximal effect.

Values in the order – VACV mCherry inh | Vaccinia Venus
- CCCc1cnc2c(c1SCC(=O)N1CCC(C)CC1)c(=O)n(C)c(=O)n2C
    -9% | -7%
- CN(CC(=O)Nc1ccc(Cl)c(C(F)(F)F)c1)C(=O)COc1cccc2cccnc12
    u | u
- Cc1ccc(Cn2c(=O)n(Cc3ccccc3)c(=O)c3oc4ccccc4c32)cc1
    -8% | -11%
- C=CCn1c(=O)c(C(=O)OCC)c(O)c2ccccc21
    i | -5%
- CCC1CCCCN1CCCNC(=O)CC1Oc2ccccc2NC1=O (stereo not drawn)
    2% | 3%
- C#CCNC(=O)C1=C[C@@H](C)[C@H](CCCO)[C@@H](OCC)O1
    -25% | -5%
- Cc1cc(OC(C)C(=O)NCC2CCC(C(=O)O)CC2)c2c(C)c(Cc3ccccc3)c(=O)oc2c1 (stereo not drawn)
    -5% | 6%
- CC(O)(c1cccs1)C(C(=O)O)c1ccccc1 (stereo not drawn)
    -11% | 7%
- O=C(CCNC(=O)c1ccc([N+](=O)[O-])cc1)NCC1COc2ccccc2O1 (stereo not drawn)
    -7% | -6%
- COc1cc(/C=C(\C#N)C(=O)NCC2CCCO2)ccc1OC(=O)c1ccco1 (stereo not drawn)
    -16% | -5%
- CCOC(=O)c1[nH]c(C)c(C(=O)OC(C)C(=O)Nc2ncc(Cl)cc2Cl)c1C (stereo not drawn)
    u | -19%
- Cc1cccc(N2CC34C=CC(O3)C(C(=O)O)C4C2=O)c1 (stereo not drawn)
    -4% | 2%
- Cc1ccc(NC(=O)COC(=O)c2ccc3ncsc3c2)c(C)c1
    i | -12%
- CCOc1ccc(C(=O)c2oc3ccccc3c2NC(=O)c2cc(=O)c3ccc(C)cc3o2)cc1
    -8% | -1%
- CCc1ccc(C(=O)CSc2nc3cc(S(=O)(=O)N4CCOCC4)ccc3n2CC)cc1
    -18% | -9%
- CCc1ccc(NS(=O)(=O)c2[nH]ncc2C(=O)OC)cc1
    -8% | 2%
- COc1ccc(S(=O)(=O)N2CCOC2CNC(=O)C(=O)NCc2ccccn2)cc1C (stereo not drawn)
    -2% | -12%
- COc1ccc(CCNC(=O)CN(c2cc(OC)ccc2OC)S(=O)(=O)c2ccccc2)cc1
    -3% | -2%
- O=C(COc1ccc(S(=O)(=O)NC2CCCCC2)cc1)Nc1ccc2c(c1)OCCO2
    -7% | -7%
- COc1ccc(/C=C(\C#N)c2nc(-c3cc(Cl)ccc3OC)cs2)cc1
    -7% | -9%
- Cc1cccc(C)c1OC(=O)CCN1C(=O)C2C3C=CC(C4CC34)C2C1=O (stereo not drawn)
    i | 11%
- COC(=O)[C@H](Cc1ccccc1)NC(=O)NCCc1ccc(OC)cc1
    -4% | -3%
- COC(=O)CN1C(=O)C2(C(C#N)=C(N)Oc3c2c(C)nn3-c2ccccc2)c2ccccc21 (stereo not drawn)
    -15% | -11%
- Cc1ccc(-c2cccc(C3CC=CC4C3C(=O)N(Cc3ccccc3)C4c3ccc4ccccc4c3)c2)cc1 (stereo not drawn)
    i | -14%
- COc1ccc(NS(=O)(=O)c2ccc(N3CCOCC3)c(NC(=O)c3ccco3)c2)cc1
    -27% | -18%
- Cc1cc(NC(=O)C23CC4CC(CC(C4)C2)C3)n[nH]1
    -11% | 0%
- O=C(COC(=O)c1cc(=O)c2ccccc2o1)Nc1c(F)c(F)c(F)c(F)c1F
    -19% | -3%
- C/C(=N/NC(=O)c1sc(NS(=O)(=O)c2ccccc2)nc1C)c1sc(N)nc1C
    -18% | -4%
- Cn1cccc1/C=N/N1CCN(Cc2cccc3ccccc23)CC1
    i | -12%
- CC(=O)C1=CCC(c2ccc(Cl)c(Cl)c2)N(S(=O)(=O)c2ccc(C)cc2)C1 (stereo not drawn)
    i | -13%
- Nc1cc(=O)[nH]c(SCc2csc(-c3ccccc3)n2)n1
    -8% | -22%
- Cc1cc(C)nc(N/N=C/c2c(C)oc3ccccc23)n1
    -28% | -26%
- CCCC(=O)Nc1ccc2c(c1)nc(CN1CCN(C(=O)OCC)CC1)n2C
    -10% | -15%
- COc1ccccc1NC(=O)C1CCN(S(=O)(=O)c2cccc3nonc23)CC1
    4% | -12%
- O=C(NCC(=O)N1CCCCCC1)c1ccc(Cl)cc1
    -19% | -16%
- Cc1ccc(Cl)cc1NC(=O)C1CCC(CNS(=O)(=O)c2cccc3nsnc23)CC1 (stereo not drawn)
    2% | 5%
- CCOc1ccc(-c2nn3c(-c4ccccc4)nnc3s2)cc1
    -19% | -7%
- CCN(CC(=O)NCc1ccc(Cl)cc1)C(=O)c1c(C)noc1C
    -12% | -4%
- COc1ccc(/C=C\C(=O)NC2CC(=O)N(c3ccc(F)cc3)C2)cc1OC (stereo not drawn)
    -10% | -13%
- O=C(NC1CCCCCC1)C1CCCN1S(=O)(=O)c1cccc2cccnc12 (stereo not drawn)
    -6% | -8%
- O=C(CCNC(=O)N1C[C@H]2C[C@@H](C1)c1cccc(=O)n1C2)Nc1cccc(Cl)c1
    -1% | 6%
- COc1ccc(/C=C2\Oc3cc(OCC(=O)N4CCC(C(=O)O)CC4)ccc3C2=O)c(OC)c1
    -5% | -3%
- COC(=O)C1NN=C(C(=O)c2ccc(Cl)cc2)C1c1ccc(OC)cc1 (stereo not drawn)
    i | -14%
- O=C(Cc1ccc(Cl)cc1Cl)OCC(=O)N1CCCCC1
    -22% | -11%
- Fc1ccc(/C=N/n2c(COc3ccccc3)n[nH]c2=S)cc1
    -16% | -13%
- CC1CCN(C(=O)Cn2cc(SCC(=O)NCc3ccccc3Cl)c3ccccc32)CC1
    -5% | -8%
- CC(C)(C)C(=O)Nc1ccccc1-c1nc2ccccc2[nH]c1=O
    -27% | -7%
- COCCN(C(=O)CSc1nn(-c2ccc(F)cc2)c(=S)s1)c1c(N)n(CC(C)C)c(=O)[nH]c1=O
    -16% | -11%
- COc1cc(CCC(=O)OCc2nnc(-c3ccccc3)o2)cc(OC)c1OC
    -7% | -6%
- Cc1nn(CC(=O)Nc2ccccc2F)c(=O)c2c(C)n(-c3ccc(Cl)cc3)nc12
    u | -28%
- CCOc1cc(C(c2c(O)nc(SC)[nH]c2=O)c2c(O)nc(SC)[nH]c2=O)ccc1O
    i | 0%
- CCc1nnc(NS(=O)(=O)c2ccc(NS(=O)(=O)c3ccccc3)cc2)s1
    -14% | 3%
- C/C(=N\O)C(C)(C)NC(=O)Nc1ccc(Cl)cc1
    -10% | -2%
- COc1cccc(/C=N/NC(=O)c2ccc(-n3cnnn3)cc2)c1
    -14% | -9%
- CCOC(=O)C(Cc1ccccc1)C1(C)Oc2ccccc2O1 (stereo not drawn)
    -18% | -16%
- CCc1nnc(NC(=O)c2cc(C)oc2C)s1
    -4% | -18%
- Cc1nn(C)c(C)c1S(=O)(=O)N1CCCC(C(=O)N2CCN(c3ccc(Cl)cc3)CC2)C1 (stereo not drawn)
    u | u
- CC(=O)N(CCCN(C)C)c1nc2ccc(C)cc2s1
    -8% | -14%
- CN1C(=O)CN=C(c2ccc[nH]2)c2cc(Cl)ccc21 (tested in a mixture with another compound)
    i | -9%
- Cc1cccc(-n2c(C)nc3cc(C(=O)NC4CCCCCC4)ccc32)c1
    -8% | -7%

Additional structures follow:
Values in the order – VACV mCherry inh | Vaccinia Venus
- COc1cccc(C=NNC(=S)NN=Cc2cccc(OC)c2OC)c1OC
    u | -5%
- CCOC(=O)c1sc(NS(=O)(=O)c2ccc(F)cc2)nc1C
    -6% | -4%
- Cc1onc(-c2ccccc2)c1C(=O)N(Cc1ccccn1)Cc1ccccn1
    -7% | -20%
- Cc1ccc(C)c(N(C)S(=O)(=O)c2ccc3[nH]cc(C(=O)NC4CCCC4)c(=O)c3c2)c1
    u | u
- CC1(C(=O)NS(=O)(=O)Cc2ccccc2C(F)(F)F)CCN1C(=O)Cc1ccsc1 (stereo not drawn)
    i | -6%
- Cc1ccn2c(C(=O)CSc3ccccc3Cl)c(C)nc2c1
    x | 3%
- COc1cccc(C(O)c2nc(-c3ccc(Cl)cc3)cs2)c1 (stereo not drawn)
    15% | 1%
- CN(Cc1ccccc1)c1nc2c(c(=O)n(C)c(=O)n2C)n1CCSc1ncccn1
    -3% | -4%
- Cc1nc(SCC(=O)N2CCN(c3ccccc3)CC2)[nH]c(=O)c1C
    -12% | -4%
- CC1CCCCN1S(=O)(=O)c1ccc(F)c(C(=O)Nc2ccccc2C(F)(F)F)c1 (stereo not drawn)
    -10% | -8%
- O=C(CN1C(=O)NC2(CCCC2)C1=O)OCCOc1ccc(Cl)cc1
    -17% | -11%
- CCC(=O)Oc1ccc2c(c1)O/C(=C\c1ccco1)C2=O
    i | -13%
- O=C(O)Cn1nc(C(F)(F)F)c2c1CCC2
    2% | -4%
- CCO/N=C(\C)c1c(O)c2ccccc2n(C)c1=O
    -4% | 3%
- CCOc1ccc(-c2cnc(SCC(N)=O)nc2N)cc1
    x | -19%
- CCOCCn1cnc2sc(C(=O)NCC(=O)OCC)c(C)c2c1=O
    x | -13%
- CCC(=O)N1CCc2cc(Br)cc(S(=O)(=O)NCCc3ccccc3)c21
    -18% | -7%
- COC(=O)c1ccc(Cn2c(SCc3ccccc3F)nc3ccncc32)cc1
    1% | -5%
- COc1ccc(C(=O)Nc2ccc(Cl)cc2C(=O)c2ccccc2)c(OC)c1
    -17% | -14%
- CN(C)CCCN(C(=O)c1ccc(S(=O)(=O)N2CCc3ccccc32)cc1)c1nc2ccc(Cl)cc2s1
    -1% | -7%
- CSc1nc(N)nc2c1ncn2Cc1ccccc1
    -7% | -2%
- COc1cc(CNCc2c[nH]c3ccccc23)cc(OC)c1
    -8% | -16%
- Cc1ccc(N2CC(=O)N(NC(=O)CN3CCN(c4ccccc4)CC3)CC2=O)cc1
    -19% | 8%
- O=C1C=C(c2cc(C(F)(F)F)cc(C(F)(F)F)c2)C[C@@H](c2ccc(Cl)cc2)C1
    u | -19%
- Cn1cnc2c(=O)oc3ccc(S(=O)(=O)Nc4ccc(F)cc4)cc3c21
    -5% | 1%
- COc1cc2[nH]c3c(=O)n(CCN4CCCCC4)cnc3c2cc1OC
    -2% | -12%
- O=C(NC(=S)Nc1ccccc1C(=O)O)c1ccc2ccccc2c1
    i | 10%
- O=[N+]([O-])c1ccccc1Nc1ccc(O)cc1
    -18% | 16%
- CCCCNC(=O)CCn1c(=O)c2ccccc2n(CC(=O)N2CC(C)CC(C)C2)c1=O (stereo not drawn)
    i | 0%
- Cc1ccc(C)c(NC(=O)C2(C)CCN2C(C)C)c1 (stereo not drawn)
    -3% | -1%

Structures from the list above that have a COOH group, in the order listed:
Values in the order – VACV mCherry inh | Vaccinia Venus
- Cc1cc(OC(C)C(=O)NCC2CCC(C(=O)O)CC2)c2c(C)c(Cc3ccccc3)c(=O)oc2c1 (stereo not drawn)
    -5% | 6%
- CC(O)(c1cccs1)C(C(=O)O)c1ccccc1 (stereo not drawn)
    -11% | 7%
- Cc1cccc(N2CC34C=CC(O3)C(C(=O)O)C4C2=O)c1 (stereo not drawn)
    -4% | 2%
- COc1ccc(/C=C2\Oc3cc(OCC(=O)N4CCC(C(=O)O)CC4)ccc3C2=O)c(OC)c1
    -5% | -3%
- O=C(O)Cn1nc(C(F)(F)F)c2c1CCC2
    2% | -4%
- O=C(NC(=S)Nc1ccccc1C(=O)O)c1ccc2ccccc2c1
    i | 10%

Some of the entries above in a different format:
Cc1ccc(C)c(N(C)S(=O)(=O)c2ccc3[nH]cc(C(=O)NC4CCCC4)c(=O)c3c2)c1
  VACV mCherry inh: u | Vaccinia Venus: u

CC1(C(=O)NS(=O)(=O)Cc2ccccc2C(F)(F)F)CCN1C(=O)Cc1ccsc1 (stereo not drawn)
  VACV mCherry inh: i | Vaccinia Venus: -6%

(more compounds)
Values in the order – VACV mCherry inh | Vaccinia Venus
- CCn1cc(CN2CCC(C(=O)Nc3ccc(Oc4cccnc4)cc3)CC2)cn1
    -5% | -20%
- CSc1cnc2c(N)nc(N(C)C)nc2n1
    -6% | -3%
- CCCCn1cc(S(=O)(=O)c2ccc(CC)cc2)c(=O)c2cc(F)c(N3CCOCC3)cc21
    -13% | -24%
- CCCCN(Cc1ccccc1)C(=O)c1oc(=O)c2ccccc2c1-c1ccc(C)cc1
    -13% | -23%
- CSCCC(NC(=O)/C(=C/c1ccco1)NC(=O)c1ccco1)C(=O)O (stereo not drawn)
    -6% | -10%
- COc1ccc(NC(=O)CC2C(=O)N(c3ccccc3)C(=O)N2C2CCCCC2)cc1 (stereo not drawn)
    0% | 0%
- Cc1ccccc1CC(=O)NC1CCN(Cc2ccccc2)CC1
    i | 2%
- CC(C)(C)c1cc(NC(=O)c2cccc([N+](=O)[O-])c2)no1
    -6% | -6%
- Cc1ccc(Cn2c(C)c(CNC(C)c3ccccc3)c(C(=O)O)c2C)cc1 (stereo not drawn)
    -13% | -11%
- CCCCn1c(=O)c(C(=O)Nc2ccsc2C(=O)OC)c(O)c2ccccc21
    -8% | -17%
- CN(Cc1ccccc1)S(=O)(=O)c1ccc(Cl)c(C(=O)NCCc2ccccn2)c1
    i | -9%
- Cc1ccccc1-n1c(Cn2c(=O)sc3ccccc32)nnc1SC(C)C
    -1% | -3%
- COc1ccc(-c2cc(C(=O)Nc3cnn(Cc4ccc(F)cc4)c3)no2)cc1OC
    2% | -2%
- NC(=O)CSc1nc(C23CC4CC(CC(C4)C2)C3)nc2ccccc12
    u | u
- O=C(O)C1=C(Nc2ccccc2)OCC1=O
    4% | 17%
- COc1ccc(CCNc2nc(=S)[nH]c3cc(OC)c(OC)cc23)cc1OC
    0% | -22%
- Cc1ccc(-c2csc3ncnc(N4CCN(c5ccccc5O)CC4)c23)cc1
    u | -5%
